Screening results deposited in PubChem by National Center for Advancing Translational Sciences (NCATS).
Menin MLL FP FL = qHTS Assay for Inhibitors Targeting the Menin-MLL Interaction in MLL Related Leukemias: Competition With Fluorescein Labeled MLL-derived Peptide. Fluorescence polarization, fluorescein-MLL peptide displacement from menin. FP activity change, % at 61.4 µM. 290,000 tested, under 10 active; inconclusive = falling polarisation curve, or a change in total fluorescence; inactive = total fluorescence flat and polarisation flat or rising; no compound was filed as active; the % refers to the polarisation; negative = inhibition;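 note: % of control where 0% means no effect; inhibitors lower the polarisation; unlabelled MLL peptide was the positive control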
ClpP mod = qHTS Assay for Activators of ClpP | purified B. subtilis ClpP, FRET peptide cleavage, 20 min | 340,000 tested, 1.9% active | Potency, µM (series often up to 57.5 µM), without a hit: at the top dose activity change, negative = active; active = well fitted falling curve with a large enough effect; inconclusive = small, poorly fitted or top-dose-only effect; inactive = no such curve, though single readings can be large or run the other way; note: potency is the fitted concentration of half-maximal effect; the source files actives as falling curves though it sought activators and does not explain the sign; nearly all actives have a fitted effect of over 65% in size; many hits overshoot -100%
Target sequence (P80244 whole entry, looked up): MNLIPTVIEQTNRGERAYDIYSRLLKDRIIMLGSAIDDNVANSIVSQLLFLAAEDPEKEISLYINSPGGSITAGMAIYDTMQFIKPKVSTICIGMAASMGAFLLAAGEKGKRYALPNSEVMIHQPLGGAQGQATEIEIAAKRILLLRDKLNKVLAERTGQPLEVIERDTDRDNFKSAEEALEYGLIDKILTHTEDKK
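FRET quenching reversal measured ClpP activation: 10 microg/mL B. subtilis ClpP at pH 8 with the FRET-FV decapeptide, read at 430 nm after 320 nm excitation. The 20-min minus 0-min signal was scaled between DMSO/no-enzyme wells and ADEP (5.8 microM final).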
TRPML1 ag = qHTS for Agonists of the Human Mucolipin Transient Receptor Potential 1 (TRPML1); Mucolipin-1 (Homo sapiens), Q9GZU1; TRPML1-expressing cells, Ca2+ dye fluorescence, FDSS; host cell line not named in the record; reference of the full effect not given here; activation, % (test concentration not listed); 410,000 tested, 0.12% active; in the data active = activation above about 50%; inconclusive = about 30% to 50%; inactive = below about 30%; note: 0% is about no effect; the text of the record puts the active cut at 80%
Target sequence (Q9GZU1 whole entry, looked up): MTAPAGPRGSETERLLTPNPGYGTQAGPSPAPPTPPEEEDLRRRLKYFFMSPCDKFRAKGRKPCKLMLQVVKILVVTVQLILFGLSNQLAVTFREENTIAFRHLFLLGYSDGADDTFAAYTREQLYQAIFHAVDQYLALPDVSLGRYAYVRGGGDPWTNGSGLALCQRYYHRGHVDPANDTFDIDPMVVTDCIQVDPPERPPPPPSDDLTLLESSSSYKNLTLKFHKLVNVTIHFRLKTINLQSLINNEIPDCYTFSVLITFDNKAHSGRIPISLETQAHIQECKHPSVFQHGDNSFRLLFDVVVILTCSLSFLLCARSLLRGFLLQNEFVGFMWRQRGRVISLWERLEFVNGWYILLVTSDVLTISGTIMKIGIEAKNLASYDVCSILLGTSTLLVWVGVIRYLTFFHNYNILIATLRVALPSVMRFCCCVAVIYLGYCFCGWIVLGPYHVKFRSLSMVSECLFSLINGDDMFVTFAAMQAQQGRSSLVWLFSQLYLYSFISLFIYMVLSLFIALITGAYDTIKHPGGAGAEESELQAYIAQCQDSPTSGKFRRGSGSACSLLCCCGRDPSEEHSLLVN
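Tet-induced TRPML1-DL cells, 1,500 per well, cultured overnight, were loaded with a no-wash Ca2+ dye for 45–90 min. Calcium fluorescence was recorded on the FDSS for 110 s after compound addition, before the EC80 agonist (4 uM 54-4) was added.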
gsp antagonist = qHTS for Antagonists of gsp, the Etiologic Mutation Responsible for Fibrous Dysplasia/McCune-Albright Syndrome: qHTS; gsp-mutant cells, cAMP HTRF, 30 min; control for the full effect not named in the record; Potency, µM (highest dose often 76.9 µM), without a hit: top-dose activity change, negative = inhibition, usual class: inhibitors; AID 624288, 2012; 340,000 tested, 0.4% active; active = falling curve of any shape with a large fitted effect; inconclusive = falling curve, mostly with a smaller effect; inactive = flat or rising curve; cell line not stated here;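 note: intracellular cAMP measured with PDE inhibitor Ro 20-1724 present during compound exposure; potency is the fitted concentration of half-maximal effect; % is set by controls: 0 for no effect and ±100 for the full control effect; nearly all actives have a fitted effect of over 65% in size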
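G418-selected cells were plated in DMEM/10% FBS for 16-24 h at 37C, then treated with compounds plus the PDE inhibitor […] (300 uM solution added) for 30 min at 37C. Intracellular cAMP was measured by HTRF after 30 min lysis at room temperature.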
TRPML1 blocker = qHTS for Inhibitors of the Human Mucolipin Transient Receptor Potential 1 (TRPML1) | 390,000 tested, 0.02% active | activity change, negative = inhibition, % (concentration not given with the values) | Mucolipin-1 (Homo sapiens), Q9GZU1 | AID 624415, 2012 | TRPML1-inducible cells, Ca2+ dye fluorescence, FDSS; active compounds read low; inhibition of EC80 agonist-evoked calcium signal; in the data active means activity change below about -50%; inconclusive means about -30% to -50%; inactive means above about -30%;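 note: stimulus is agonist 54-4 at its EC80 concentration; % is set by controls: 0 for no effect and ±100 for the full control effect; the text of the record puts the active cut at -80%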
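Tet-induced TRPML1-DL cells loaded with Ca8 no-wash calcium dye were read kinetically on FDSS. Compound addition was followed by EC80 agonist 54-4 (4 uM final); inhibition was read over 110 s.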
gsp agonist = qHTS for Agonist of gsp, the Etiologic Mutation Responsible for Fibrous Dysplasia/McCune-Albright Syndrome: qHTS. gsp mutant cells, cAMP HTRF, 30 min; control for the full effect not named in the record. Potency, µM (doses to about 76.9 µM), without a hit: at the top dose activation (cAMP increase), usual class: activators. 340,000 tested, 0.13% active; active = well fitted activation curve with a large enough effect; inconclusive = small, poorly fitted or top-dose-only effect, or another doubt; inactive = no such curve, though single readings can be large or run the other way; cell line not stated here;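 note: phosphodiesterase inhibitor Ro 20-1724 added with compounds to block cAMP breakdown; potency is the fitted concentration of half-maximal effect; nearly all actives have a fitted effect of over 60% in size; about a fifth of the inactives were tested at one dose only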
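Cells stably selected in G418 were plated at 2000/well, grown 16-24 hr, then given compounds in DMSO with the PDE inhibitor […] (300 uM solution added) for 30 min at 37C; cAMP was read by HTRF.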
Starred values were filed as active, the others as inactive; ? = inconclusive; / = not tested or not shown; [ ] = dose if it differs, or a comment.

SMILES	Menin MLL FP FL	ClpP mod	TRPML1 ag	gsp antagonist	TRPML1 blocker	gsp agonist
O=C(CNC(=O)c1ccc(Br)o1)Nc1ccccc1	-3.6	-0.6%	0.7	4%	-7	?
Cc1cccc(NS(=O)(=O)c2cc(C(=O)N3CCOCC3)ccc2Cl)c1	-4.0	/	-0.8	3%	0	?
Nc1c(C(=O)Nc2ccc(F)cc2)sc2nc(-c3cccs3)cc(C(F)(F)F)c12	/	4.1%	?	/	-17	/
CCCn1c2ccccc2c2cnn(CC(=O)Nc3ccccc3OC)c(=O)c21	/	?	3.3	/	-1	/
CC(C)CC(c1nnnn1C(C)(C)C)N1CCN(Cc2ccccc2)CC1 (centres undefined)	-2.4	/	2.0	-3%	0	-1%[15.4 µM]
COc1ccc(-n2c(SCc3nnc(-c4ccccc4)o3)nnc2-c2ccccc2)cc1	7.5	0.8%	0.1	-17%	-8	-67%[inhibitor]
CC(C)CC(=O)N1CCN(S(=O)(=O)c2ccc(F)cc2)CC1	-1.8	0.0%	0.6	2%	-11	-27%
Cc1ccc(-n2nc(C)c3c(C(=O)NCCc4ccc(S(N)(=O)=O)cc4)cc(C)nc32)cc1	/	21%	1.1	/	19	/
COc1ccc(Cn2ccc3nc(C)c(C(=O)N4CCN(c5cccc(OC)c5)CC4)cc3c2=O)cc1	/	-3.4%	1.1	/	-9	/
COc1ccc(-c2cc(-c3ccc(O)cc3)nc(N)c2C#N)cc1	1.7	4.4%	-1.0	-3%	1	-7%
O=C(NCCS(=O)(=O)NCc1cccnc1)c1ccccc1	/	-1.7%	0.4	12%	6	-24%
CCOc1ccccc1CNS(=O)(=O)c1cc(-c2onc(C)c2C)ccc1OC	/	-6.3%	2.5	/	26	/
O=C(Nc1nc2nccc(-c3ccccc3)n2n1)C(Cl)(Cl)Cl	-1.6	36%	2.6	2%	-16	10%
O=[N+]([O-])c1ccc(NC(=S)N2CCc3ccccc3C2)cc1	6.9	1.3%	-0.7	?	-1	-7%
CC(C)CN(C(=O)COC(=O)CNC(=O)c1ccc(Cl)cc1)C1CCS(=O)(=O)C1 (centres undefined)	0.1	/	-0.2	10%	-1	7%[15.4 µM]
Cc1ccccc1-n1c(C)cc(/C=C(\C#N)C(=O)NCC2CCCO2)c1C (centres undefined)	10	-7.4%	2.0	10%	-20	-6%
COc1ccc(/C(C#N)=C/c2ccccn2)cc1	-2.3	4.5%	-0.1	-8%	12	-8%
Cc1ccc(OCCCn2c(CCNC(=O)C3CCCCC3)nc3ccccc32)c(C)c1	/	-0.7%	0.1	/	7	/
COc1ccc(NC(=O)CSc2n[nH]c(=O)n2C2CC2)cc1Cl	/	-2.2%	1.2	3%	19	-9%
Cc1cccc(N2CCN(C(=O)c3cc(C)oc3C)CC2C)c1 (centres undefined)	2.3	0.0%	0.2	-8%	-8	6%
C=CCSc1nnc(NC(=O)Cn2cnc3c2c(=O)n(C)c(=O)n3C)s1	3.5	-0.2%	0.0	15%	4	13%[15.4 µM]
CC(OC(=O)c1ccccc1NCCO)C(=O)Nc1ccnn1C(C)C (centres undefined)	/	4.0%	0.3	7%	-1	6%
Cc1ccc(CSc2cn(CC(=O)N3CCCCC3)c3ccccc23)cc1	/	-4.4%	2.1	/	17	/
CN(C)CCNC(=O)CN1C(=O)COc2ccc(S(=O)(=O)N3CCCC3)cc21	/	0.1%	0.4	/	14	/
COc1ccc(NC(=O)CN(C)C(=O)c2ccc(NS(=O)(=O)c3ccc(C)c([N+](=O)[O-])c3)cc2)cc1	/	-0.5%	-1.0	-6%	-5	-8%
Cn1cc(SCC(=O)Nc2ccc3c(c2)OCCO3)c2ccccc21	4.3	2.4%	1.0	-1%	1	-78%[inhibitor]
Cc1cccc(C(=O)NCCNC(=O)c2cccnc2)c1	3.3	/	0.0	-2%	-24	28%
CC(C)(C)c1ccc(NC(=O)NCc2ccco2)cc1	2.2	-1.9%	1.3	-14%	4	-38%[inhibitor]
Oc1ccc(N2CCN(Cc3nc4ccccc4[nH]3)CC2)cc1	1.9	/	-0.3	-4%	-4	-8%
Cc1ccc(S(=O)(=O)c2c(N)n(CCC(C)C)c3nc4ccccc4nc23)cc1	4.6	25µM*	-0.3	-28%	10	-38%[inhibitor]
CC(=O)Nc1ccc(SCC(=O)c2cc(C)n(CC(F)(F)F)c2C)cc1	0.2	1.7%	1.0	-6%	-20	?
Cn1c(=O)c2c(-c3ccccc3)n(-c3ccccc3)cc2n(C)c1=O	/	1.3%	0.6	/	1	-34%[inhibitor]
CCCCCCn1c(CNC(=O)c2ccccc2)nc2ccccc21	/	0.4%	0.8	/	-6	/
Nc1c(NCc2ccccc2F)c(=O)[nH]c(=O)n1Cc1ccccc1	?	-14%	1.2	5%	6	?
CC(CNC(=O)c1cc(COc2c(F)cccc2F)on1)Oc1cccnc1 (centres undefined)	2.6	0.3%	0.4	-5%	5	12%
CCN(c1ccccc1)S(=O)(=O)c1csc(C(N)=O)c1	2.7	/	-0.3	2%	-12	17%
CCCCOc1ccc(N(CC(=O)NC2CCCCC2)C(=O)c2snc(C(N)=O)c2N)cc1	-1.3	-0.6%	-1.8	10%	-1	2%[15.4 µM]
Cc1ccc(-n2ccnc2SCC(=O)O)c(C)c1	1.3	-0.5%	0.4	-32%	0	1%
CCOc1ccc(NC(=O)CS(=O)CC(=O)Nc2cccnc2)cc1 (centres undefined)	/	/	0.0	5%	-13	2%
O=C(Nc1cc(SCCO)cc([N+](=O)[O-])c1)c1ccco1	-0.3	-1.1%	0.1	-1%	-1	?
CC(OC(=O)c1ccc(S(=O)(=O)N2CCOCC2)cc1)c1ccccc1 (centres undefined)	/	0.2%	1.0	2%	9	-13%
CS(=O)(=O)N1CCN(C(=O)c2cc(-c3cccs3)nc3ccccc23)CC1	-0.7	11µM*	0.4	4%	-12	-6%
CCN(CC)CCCNC(=O)c1ccccc1C	-0.7	0.3%	-0.7	6%	0	-4%
COc1ccc(C(=O)n2cnc3ccccc32)cc1Br	/	/	1.3	11%	2	0%
O=C(c1ccco1)N1CCN(S(=O)(=O)c2cccc([N+](=O)[O-])c2)CC1	?	/	-0.8	/	-11	0%[15.4 µM]
CC(=O)c1ccc(NC(=O)C2CCCN2S(=O)(=O)c2cccc3cccnc23)cc1 (centres undefined)	-3.6	0.1%	-0.5	-10%	-4	-13%
CCCNC(=O)CCc1c(C)nc2c(c(C)nn2-c2ccc(C)cc2)c1C	1.8	3.3%	-0.3	-14%	-9	-2%
CCc1ccccc1N1C(=O)C2C3CC(=O)C(c4ccccc43)C2C1=O (centres undefined)	2.4	-1.5%	2.2	17%	-18	10%
CCOC(=O)c1c(NC(=O)COc2ncnc3sccc23)sc2c1CCC2	12	35%	1.3	5%	0	-11%
CS(=O)(=O)N(Cc1ccccc1)c1ccc(C(=O)NCc2cccnc2)cc1	1.0	-1.5%	-0.3	12%	-19	12%
CCc1cccc(C)c1NC(=O)CN1C(=O)c2cccc3cccc1c23	/	-3.8%	-0.5	/	-2	/
COc1ccc(-c2csc(NC(=O)C3=COCCO3)n2)c(OC)c1	/	/	2.2	-5%	-3	9%[15.4 µM]
CCOC(=O)C(C)Sc1nnc2ccc3ccccc3n12 (centres undefined)	/	-0.9%	-0.7	/	1	/
Cc1c(C(=O)N2CC(C(=O)N3CCCCC3)Oc3ccccc32)oc2ccccc12 (centres undefined)	/	-2.2%	1.4	1%	4	-20%
CCOc1ccc(NC(=O)C(C)Oc2ccccc2C(=O)Nc2ccc(C)c(Cl)c2)cc1 (centres undefined)	-3.2	-30%	0.6	-12%	-10	-2%
Cc1cc2oc(C(=O)Nc3ccc(S(=O)(=O)N4CCC(C)CC4)cc3)cc(=O)c2cc1C	/	-1.1%	0.2	/	8	/
CN(c1c(C#N)c(C(F)(F)F)nn1C)N(S(C)(=O)=O)S(C)(=O)=O	-3.1	/	0.6	15%	-10	-3%
CCOC(=O)c1ccccc1NC(=O)CCc1c(C)nc2c(c1C)c(=O)n(C)c(=O)n2C	/	-7.2%	-0.4	/	23	/
O=C(CN1CCN(c2ncccn2)CC1)Nc1ccccc1-n1cccc1	3.7	-2.1%	1.0	?	0	-5%
C=CCn1c(SCC(=O)Nc2ccc(F)cc2F)nc2c([nH]c3ccccc32)c1=O	/	-4.7%	0.9	13%	-3	-2%[15.4 µM]

Three of the compounds above, as labelled records.
CCOC(=O)c1c(NC(=O)COc2ncnc3sccc23)sc2c1CCC2
  Menin MLL FP FL: 12
  ClpP mod: 35%
  TRPML1 ag: 1.3
  gsp antagonist: 5%
  TRPML1 blocker: 0
  gsp agonist: -11%
CS(=O)(=O)N(Cc1ccccc1)c1ccc(C(=O)NCc2cccnc2)cc1
  Menin MLL FP FL: 1.0
  ClpP mod: -1.5%
  TRPML1 ag: -0.3
  gsp antagonist: 12%
  TRPML1 blocker: -19
  gsp agonist: 12%
CCc1cccc(C)c1NC(=O)CN1C(=O)c2cccc3cccc1c23
  Menin MLL FP FL: /
  ClpP mod: -3.8%
  TRPML1 ag: -0.5
  gsp antagonist: /
  TRPML1 blocker: -2
  gsp agonist: /

The listing continues.
SMILES	Menin MLL FP FL	ClpP mod	TRPML1 ag	gsp antagonist	TRPML1 blocker	gsp agonist
CCCCC(=O)NC(=S)Nc1cccc(NC(=O)c2ccco2)c1	0.7	25µM*	-0.5	11%	19	-61%[inhibitor]
Cc1noc(C)c1C(=O)OCC(=O)NCCc1ccccc1	/	1.2%	1.9	13%	18	2%
COc1ccc(C(=S)N2CCOCC2)cc1OS(=O)(=O)c1ccccc1[N+](=O)[O-]	7.0	/	0.5	2%	3	3%
O=C(Nc1ccc(C(=O)N2CCN(c3ccccc3F)CC2)cc1)c1nsc2ccccc12	/	-12%	1.5	/	-6	/
CCN(CC)S(=O)(=O)c1ccc2c(c1)N(CC(=O)Nc1c(C)cccc1C)C(=O)CO2	/	-3.9%	0.4	/	-1	/
CCOC(=O)c1ccccc1NC(=O)C(C)Oc1ccccc1 (centres undefined)	1.1	-10%	1.5	2%	2	-1%
CSc1ccc(C2c3c(oc4ccccc4c3=O)C(=O)N2CCCN2CCOCC2)cc1 (centres undefined)	/	0.9%	2.0	/	2	/
COc1ccc(OCC(O)CN2CCN(CC(O)COc3ccc(OC)cc3)CC2)cc1 (centres undefined)	-3.9	-3.5%	0.1	1%	13	-32%
CS(=O)(=O)NCc1nnc(SCc2c(F)cccc2Cl)o1	-0.5	0.5%	?	13%	3	-5%[15.4 µM]
